# Screens deposited in PubChem by National Center for Advancing Translational Sciences (NCATS).
# ClpP mod: qHTS Assay for Activators of ClpP; purified B. subtilis ClpP, FRET peptide cleavage, 20 min; Potency, µM (doses to about 57.5 µM), for the others: at the top dose activity change, negative = active; 340,000 tested, 1.9% active; AID 651965, 2013; active = well fitted falling curve with a large enough effect; inconclusive = small, poorly fitted or top-dose-only effect; inactive = no such curve, though single readings can be large or run the other way; also: potency is read from the fitted curve at half-maximal effect; the source files actives as falling curves though it sought activators and does not explain the sign; nearly all actives have a fitted effect of over 65% in size; many hits overshoot -100%
# Target sequence (P80244 whole entry, looked up): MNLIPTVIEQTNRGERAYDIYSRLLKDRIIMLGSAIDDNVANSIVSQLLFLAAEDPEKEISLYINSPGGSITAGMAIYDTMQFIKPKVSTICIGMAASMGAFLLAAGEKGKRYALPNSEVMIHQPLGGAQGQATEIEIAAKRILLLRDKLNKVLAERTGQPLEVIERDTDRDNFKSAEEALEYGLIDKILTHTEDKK
#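 Purified B. subtilis ClpP, 10 microg/mL final in Tris/HCl pH8 with KCl, BSA, glycerol and Tween-20, cleaved an Abz/nitrotyrosine-quenched decapeptide. Fluorescence (ex 320, em 430) was read at 0 and 20 min at room temperature. Delta was normalized to 5.8 microM ADEP and DMSO/no-enzyme controls.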
# TRPML1 ag: agonists of human TRPML1 channel. activation, % (concentration not given with the values). TRPML1-expressing cells, Ca2+ dye fluorescence, FDSS; host cell line not named in the record; reference of the full effect not given here. 410,000 tested, 0.12% active; in the data active = activation above about 50%; inconclusive = about 30% to 50%; inactive = below about 30%; also: 0% is about no effect; the text of the record puts the active cut at 80%
# Target sequence (Q9GZU1 whole entry, looked up): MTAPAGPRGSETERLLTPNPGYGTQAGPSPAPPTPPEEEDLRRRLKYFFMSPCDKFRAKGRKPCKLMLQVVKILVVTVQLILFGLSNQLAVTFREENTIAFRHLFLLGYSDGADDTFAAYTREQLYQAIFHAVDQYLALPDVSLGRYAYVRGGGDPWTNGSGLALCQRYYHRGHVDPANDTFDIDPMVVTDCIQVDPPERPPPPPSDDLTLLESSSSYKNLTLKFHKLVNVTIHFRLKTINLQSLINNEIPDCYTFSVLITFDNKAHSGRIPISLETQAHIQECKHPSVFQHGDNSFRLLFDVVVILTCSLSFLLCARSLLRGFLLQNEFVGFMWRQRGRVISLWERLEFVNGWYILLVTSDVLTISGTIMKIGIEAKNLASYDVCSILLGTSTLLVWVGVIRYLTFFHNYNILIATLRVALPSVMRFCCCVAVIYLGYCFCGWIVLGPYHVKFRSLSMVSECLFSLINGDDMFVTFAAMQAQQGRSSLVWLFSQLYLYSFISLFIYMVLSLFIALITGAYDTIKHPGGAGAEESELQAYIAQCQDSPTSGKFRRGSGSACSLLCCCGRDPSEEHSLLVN
#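 In this qHTS format, compounds were pin-transferred onto Ca8-dye-loaded TRPML1-DL cells induced with Tet overnight, and intracellular Ca2+ fluorescence was recorded kinetically for 110 s after a 10 s baseline. A subsequent 4uM final 54-4 (EC80) addition followed by a second 110 s read served as the antagonist phase.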
# Numbers without * were called inactive; ? = inconclusive. A portion of the library; rates above refer to the full screens.
SMILES,ClpP mod,TRPML1 ag
CC(C)C(=O)N1CCCC1(C)C(=O)NCc1ccc(Cl)cc1 (stereo not given),1.9%,-0.9
CCOc1ccc(CCN2C(=O)C(=O)N([C@@H](Cc3ccccc3)CN3CCC[C@H]3CN3C(=O)C(=O)NC[C@@H]3Cc3ccccc3)C[C@@H]2Cc2ccccc2)cc1,3.1%,0.1
Cc1cc(C)c(S(=O)(=O)NN=C2c3ccccc3[C@H]3Cc4csc[n+]4[C@@H]23)c(C)c1,-2.4%,-0.8
CCNC(=O)C1CCCN(Cc2ccc(C)c3ccccc23)CC1 (stereo not given),-1.0%,-0.7
COCCNc1nc(NCc2ccc(NC(C)=O)cc2)c2sc(-c3ccccc3)cc2n1,?,-0.8
C(=C\c1ccnc2ccccc12)/c1ccc(N(Cc2ccccc2)Cc2ccccc2)cc1,0.1%,7.6
Cc1cc2nc(C3CCCCC3)c(Cc3ccsc3)n2c(C)c1Br,-4.4%,0.3
Cc1noc(C)c1-c1ccc(C(=O)NCCc2ccccc2)c2occc12,?,-0.2
N#Cc1nc(N(c2ccccc2)c2ccccc2)nc(-n2cccc2)n1,-7.0%,-0.4
Cc1ccc(S(=O)(=O)N2C[C@H]3C(=O)C[C@@H]4C(=O)N(c5ccccc5)C(=O)[C@@H]4[C@@H]3C[C@@H]2c2ccccc2)cc1,-3.0%,0.5
NC(=O)c1cccc(-c2csc(C(O)c3cccc(Cl)c3)n2)c1 (stereo not given),-0.8%,-0.6
CNc1ccc(C=C2c3ccccc3-c3ccccc32)cc1,1.2%,-0.8
CCC1CC(C(=O)O)CC(=O)N1 (stereo not given),?,-0.5
CCOC(=O)[C@]12CCC=C1N(Cc1ccccc1)C(=O)[C@H](CC(=O)NCCCCc1ccccc1)C2,-0.7%,-0.2
CC(=O)Nc1ccc(C2=NOC(C)(C)C(=O)N2Cc2cccc(C#N)c2)cc1,0.8%,-0.2
CC(C)(C)CC(C)(C)N=C1Nc2cc(Cl)c(Cl)cc2N[C@]12C[C@H]1CCCC(=O)N3CC[C@@H](C2)[C@@H]13,-4.2%,-0.3
Cc1cc(=O)[nH]c2ccc([N+](=O)[O-])cc12,-1.4%,-0.9
COc1ccc(-c2ccc(C(=O)NCc3ccncc3)c3occc23)c(C)c1,5.5%,0.1
COc1ccc(OCCN2CCC(C(=O)NC(c3ccccn3)c3ccccc3OC)CC2)cc1 (stereo not given),0.1%,-0.7
COc1ccc(-c2csc(C(O)c3ccc(F)cc3)n2)cn1 (stereo not given),-3.5%,-0.9
COc1ccc(-c2csc(C(O)c3ccc(F)c(OC)c3)n2)cn1 (stereo not given),-0.7%,-0.8
CCCc1nc2c3ccccc3ccn2c1CC(C)(C)C,-15.7%,0.0
COc1cccc(-c2cnc3c(NC=O)cc(-c4ccc(O)c(OC)c4)cn23)c1,?,-0.3
COc1cc(OC)cc(C2=Cc3ccccc3C(CC(C)=O)N2c2ccc(-c3cccs3)cc2)c1 (stereo not given),-2.5%,-0.3
O=C1NC[C@@H](CCCCN2CCN(CCc3ccc(O)cc3)C(=O)C2=O)N(CCC2CCCCC2)C1=O,0.1%,-0.5
CC1(C(=O)NCc2ccccc2Br)CCN1Cc1ccc(-c2ccccn2)cc1 (stereo not given),-1.9%,-1.0
Cc1ccccc1OCC(=O)NCC(=O)OCc1ccc2ccccc2c1,3.1%,-0.4
COC(=O)[C@]12CCCCC=C1N(Cc1cccc3ccccc13)C(=O)[C@H](CC(=O)NCc1cccc3ccccc13)C2,-6.6%,1.8
C=CCNc1nc(NCc2cccc(OC)c2)c2sc(-c3ccccc3)cc2n1,20µM*,-0.8
CC1(C(=O)O)CCCN1C(=O)c1ccc(Cl)cc1Cl (stereo not given),0.8%,-0.6
Cn1c(=O)c2cc(NC(=O)Cc3cccc4ccccc34)ccc2n1-c1ccccc1,4.8%,-0.5
Cc1noc(C)c1S(=O)(=O)NC(=O)C1(C)CCN1C(=O)C1(c2ccc(Cl)cc2)CCC1 (stereo not given),0.0%,-0.5
CCNC(=O)C1CCCN(C(=O)c2ccc3snnc3c2)CC1 (stereo not given),-0.3%,-0.4
NC(=O)c1cccc(-c2ccnc3c2CC(C(=O)NCCc2ccccc2)O3)c1 (stereo not given),-6.6%,-0.8
COc1cc2c(NC3CCN(C)CC3)nc(N3CCCN(C)CC3)nc2cc1OCc1ccccc1,4.3%,-0.7
CCCNC(=O)C1(C)CCCN(Cc2c3ccccc3nn2C)C1 (stereo not given),-0.6%,-0.7
CN(C)CCCNc1nc2cc(-c3cccc(Cl)c3)sc2c(=O)n1C,-24.5%,-0.1
CC(=O)Nc1cccc(-c2ccnc3c2CC(C(=O)Nc2ccccc2)O3)c1 (stereo not given),-18.7%,-0.3
COc1ccc(-c2coc3c(C(=O)NC4CCCCC4)cccc23)c(C)c1,-20.3%,0.1
CC(=O)c1ccc[n+](C(C)CCC(C)[n+]2cccc(C(C)=O)c2)c1 (stereo not given),-0.9%,-0.2
CCC(C)[C@H]1CNC(=O)C(=O)N1CC(C)(C)C (stereo not given in full),-2.3%,0.2
CC1(C(=O)NS(=O)(=O)c2ccc(Cl)cc2)CCN1C(=O)C1(c2ccc(Cl)cc2)CC1 (stereo not given),1.2%,-1.0
O=C(Nc1cccc(Cl)c1)c1csc([C@H]2C[C@H](O)[C@@H](CO)O2)n1,1.0%,-0.4
CN1CCN(C2CN(CCc3ccccc3)S(=O)(=O)C2)CC1 (stereo not given),-0.1%,0.1
CC(C)c1cccc(-c2csc(C(C)(O)c3ccc(F)c(F)c3)n2)c1 (stereo not given),-4.1%,1.7
COc1ccc(CNC(=O)Nc2nc(C(N)Cc3ccc(F)cc3)cs2)cc1 (stereo not given),-0.9%,2.7
CC1(C(=O)Nc2cnc3ccccc3c2)CCN1Cc1cc2ccccc2o1 (stereo not given),-3.3%,-0.3
Cc1cc(C(O)c2ncc(-c3ccccc3Cl)[nH]2)ccc1F (stereo not given),2.0%,-1.1
O=C(NCc1ccccc1)[C@@H]1CCCN1C(=O)[C@@H]1CCCN1C(=O)c1cccs1,0.2%,-0.3
COc1ccc(C(C)(O)c2nc(-c3ccc4ccccc4c3)cs2)cc1 (stereo not given),-6.4%,1.2
COC(=O)[C@]12CCCCC=C1N(CCC1=CCCCC1)C(=O)[C@H](CC(=O)NCC13CC4CC(CC(C4)C1)C3)C2,-1.1%,-0.4
CC(=O)Oc1ccc(-c2nc(-c3ccccc3)no2)cc1,1.4%,-0.5
O=S1(=O)CC(N2CCSCC2)CN1Cc1cn(Cc2ccccc2)nn1 (stereo not given),1.7%,-0.6
COc1ccc(C[C@@H]2C(=O)N[C@H](C)C(=O)N(C)[C@@H]3Cc4ccc(cc4)Oc4cc(ccc4O)C[C@H](C(=O)N[C@@H](C)C(=O)N[C@H](C)C(=O)N2C)N(C)C3=O)cc1,-7.2%,-0.2
C=CC[n+]1cccc2cc(Br)ccc21,0.9%,0.5
CC1(C(=O)NS(=O)(=O)c2cccc(F)c2)CCN1C(=O)Cc1ccccc1 (stereo not given),0.6%,-0.4
CC(C)CNC(=O)C1(C)CCCCCN1C(=O)c1csnn1 (stereo not given),0.9%,-0.9
Nc1[nH]c(C(=O)c2ccccc2)c(-c2ccccc2C(F)(F)F)c1C(=O)NCc1cccc2ccccc12,0.9%,-0.4
Cc1cc(C)c(C(O)c2ncc(-c3ccccc3Cl)[nH]2)c(C)c1 (stereo not given),-2.7%,-0.8
CC(C)CN1CCC1(C)C(=O)Nc1ccc(OC(F)F)cc1 (stereo not given),-0.2%,-0.6

# Reprinted at random: 7 entries already listed.
SMILES,ClpP mod,TRPML1 ag
COc1ccc(CNC(=O)Nc2nc(C(N)Cc3ccc(F)cc3)cs2)cc1 (stereo not given),-0.9%,2.7
CC1(C(=O)Nc2cnc3ccccc3c2)CCN1Cc1cc2ccccc2o1 (stereo not given),-3.3%,-0.3
COc1ccc(C[C@@H]2C(=O)N[C@H](C)C(=O)N(C)[C@@H]3Cc4ccc(cc4)Oc4cc(ccc4O)C[C@H](C(=O)N[C@@H](C)C(=O)N[C@H](C)C(=O)N2C)N(C)C3=O)cc1,-7.2%,-0.2
Cc1cc(C)c(C(O)c2ncc(-c3ccccc3Cl)[nH]2)c(C)c1 (stereo not given),-2.7%,-0.8
CCCNC(=O)C1(C)CCCN(Cc2c3ccccc3nn2C)C1 (stereo not given),-0.6%,-0.7
COc1cc2c(NC3CCN(C)CC3)nc(N3CCCN(C)CC3)nc2cc1OCc1ccccc1,4.3%,-0.7
COC(=O)[C@]12CCCCC=C1N(CCC1=CCCCC1)C(=O)[C@H](CC(=O)NCC13CC4CC(CC(C4)C1)C3)C2,-1.1%,-0.4

# More results
SMILES,ClpP mod,TRPML1 ag
COc1ccc(-c2cc3nc(NCC4CCCCC4)n(C)c(=O)c3s2)cc1OC,?,-0.9
O=C(Nc1cccc(F)c1)c1ccc(-n2cncn2)c2ccoc12,-3.2%,-0.6
COC(=O)c1ccc2nc(C3CCCCC3)c(CC(C)(C)C)n2c1,-13.7%,0.4
COc1ccc(OC)c(/C=C2\C=Cc3ccccc32)c1,-16.2%,-0.4
COc1ccc(-c2nc3ccc(Cl)cn3c2Cc2cccc(F)c2)cc1OC,5.0%,-0.5
COCCNC(=O)C1(C)CCCN(CCOc2ccc(Cl)cc2)C1 (stereo not given),-2.7%,-0.5
Cc1c(Br)cnc2ccccc12,-1.5%,-0.6
Cn1c(-c2ccccc2)c(Sc2ccccc2)c2cc(-c3ccc4[nH]ccc4c3)ccc21,4.8%,-0.2
CCOC(=O)[C@]12CCC=C1N(Cc1ccco1)C(=O)[C@H](CC(=O)NCCCN1CCCC1=O)C2,-2.2%,-0.4
Cc1cccc(C)c1-n1nnnc1C1(C)CCC(=O)N1Cc1cccc(C(F)(F)F)c1 (stereo not given),0.2%,0.3
C[C@H](O)[C@@H]1C(=O)N2CCc3c([nH]c4ccccc34)[C@@H]2C[C@@H]1N(C)C(=O)c1ccco1,-12.9%,-0.3
CC1(C(=O)Nc2cccc3ccccc23)CCN1C(=O)Cc1ccccc1Cl (stereo not given),1.0%,-0.5
CC(CCl)n1c(=O)c2ccccc2n1S(C)(=O)=O (stereo not given),-0.8%,-0.5
COC(=O)CCCn1cc(CN2CC(N3CCCC3)CS2(=O)=O)nn1 (stereo not given),2.1%,0.1
COc1cc(-c2cnc3c(NC=O)cc(-c4ccccc4Cl)cn23)cc(OC)c1OC,-10.7%,-0.4

# One compound at a time, as listed above. Order of screens: ClpP mod	TRPML1 ag
# CC(=O)Nc1ccc(C2=NOC(C)(C)C(=O)N2Cc2cccc(C#N)c2)cc1 as listed: 0.8%	-0.2
# COc1ccc(-c2csc(C(O)c3ccc(F)c(OC)c3)n2)cn1 (stereo not given) as listed: -0.7%	-0.8
# N#Cc1nc(N(c2ccccc2)c2ccccc2)nc(-n2cccc2)n1 as listed: -7.0%	-0.4

# Later entries
SMILES,ClpP mod,TRPML1 ag
CC1(C(=O)NCc2ccc(C(F)(F)F)cc2)CCN1Cc1c(F)cccc1F (stereo not given),1.2%,2.5
OCc1ccccc1-c1nc(NCC2CC2)nc2ccsc12,4.6%,-1.1
CCCS(=O)(=O)NC(=O)C1(C)CCN(C(=O)c2ccco2)C1 (stereo not given),0.3%,-0.5
CN(C)c1ccc(CC(=O)N2CCCC(c3cc(C(=O)Nc4ccc5c(c4)OCO5)no3)C2)cc1 (stereo not given),-0.1%,-1.2
CC(C)C[C@H]1COc2cc(N(C)CCO)ccc2S(=O)(=O)N1,-1.3%,-0.6
COc1cc(C(=O)c2cc3c(cc2C)OCO3)cc(OC)c1OC,0.5%,-1.3
COc1ccc(-c2coc3c(C(=O)NCc4ccco4)cccc23)c(C)c1,?,1.0
CCCN1CNc2c(c(=O)[nH]c(=S)n2CCc2ccc(C)cc2C)C1,-1.1%,-1.0
OC(c1ccccc1)c1nc(-c2cncnc2)cs1 (stereo not given),-1.8%,-0.1
CC(O)(c1ccccc1)c1nc(-c2ccccc2)cs1 (stereo not given),-0.5%,-0.4
CC(=O)NC(c1ccccc1)c1nc(-c2cccc(C(=O)O)c2)cs1 (stereo not given),-1.7%,-0.1
COc1cc2oc(=O)cc(CN3CCN(C(C)=O)CC3)c2cc1Cl,?,-0.3
CCCNC(=O)C1(C)CCCN(C(=O)c2cccc(C(F)(F)F)c2)C1 (stereo not given),-0.3%,-1.0
CCC(c1nnnn1-c1ccc2c(c1)OCCO2)N1CCN(c2cc(C)ccc2C)CC1 (stereo not given),0.7%,-0.8
CCn1nc(-c2ccc(C)cc2)nc2c(=O)n(C)c(=O)nc1-2,-2.5%,-0.5
CCCNC(=O)C1(C)CCN(C(=O)c2cc(C)nn2C(C)(C)C)C1 (stereo not given),-2.9%,0.1
CCCCCCC1(C)NC(c2ccc3c(c2)OCO3)=CC(c2ccccc2O)N1 (stereo not given),-6.1%,-0.2
Cc1cccc(CNC(=O)c2sc(=O)n(Cc3ccc(S(C)(=O)=O)cc3)c2C)c1,-4.2%,1.0
CCCCOCCCNC(=O)C[C@@H]1C[C@@]2(C(=O)OCC)CCC=C2N(Cc2ccc(Cl)cc2Cl)C1=O,0.1%,4.1
CCCCNC(=O)C1(C)CCN1C(=O)c1oc2ccccc2c1C (stereo not given),0.7%,-0.2
O=C(Nc1nnc([C@@H]2C[C@H](O)[C@@H](CO)O2)s1)Nc1ccccc1C(F)(F)F,-1.9%,-0.3
Nc1nc2c(Br)ccc(Br)c2cc1C(=O)NCc1cccc2ccccc12,-1.0%,1.4
